GLA inh pH 4.5 = inhibitors of human alpha-galactosidase A at pH 4.5 | P06280 | activity change, negative = inhibition, % at 105 µM | 230,000 tested, under 10 active | AID 1467 | purified enzyme, 4-MU-alpha-Gal fluorescence, pH 4.5; inconclusive = small, poorly fitted or top-dose-only inhibition, or a rising curve; inactive = flat fitted curve, though single readings scatter; no compound was filed as active;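 note: 0% = full activity with enzyme and -100% = basal without enzyme; dose as in the result columns while the protocol names 77 µM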
Target sequence (P06280 whole entry, looked up): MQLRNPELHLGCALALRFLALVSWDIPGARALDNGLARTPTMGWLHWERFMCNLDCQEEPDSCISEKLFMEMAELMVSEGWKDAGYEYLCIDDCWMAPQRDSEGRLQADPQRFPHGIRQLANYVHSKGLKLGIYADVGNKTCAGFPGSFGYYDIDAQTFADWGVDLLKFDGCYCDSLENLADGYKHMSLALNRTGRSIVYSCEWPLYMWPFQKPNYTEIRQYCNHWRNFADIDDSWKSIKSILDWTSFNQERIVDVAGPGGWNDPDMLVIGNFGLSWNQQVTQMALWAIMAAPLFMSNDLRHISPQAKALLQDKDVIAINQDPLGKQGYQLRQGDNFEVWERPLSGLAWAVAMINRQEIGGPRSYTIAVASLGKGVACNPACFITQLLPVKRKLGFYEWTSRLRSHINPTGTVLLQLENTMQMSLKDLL
* hit, by the source's call; ? = inconclusive; & = joins results of further samples. These rows are one share of the data; the hit share may differ from the screen's.

SMILES	GLA inh pH 4.5
COC(=O)c1ccc(C(NC(=O)OCc2ccccc2)/C(F)=C/[C@@H](C)C(=O)NCc2cc(C)on2)cc1 (stereo partly drawn)	1
CC(C)c1c(O)c(-c2cc3c(c(C(C)C)c2O)CCC2C(C)(C)CCC[C@@]32C)cc2c1CCC1C(C)(C)CCC[C@@]21C (stereo partly drawn)	9
C=CCC1CCC(=O)N2CCCC12 (stereo not drawn)	-1
Nc1ncnc2c1ncn2[C@@H]1O[C@@H](CO)[C@H](O)[C@H]1O	8
CCc1c2c(nc3ccc(OC)cc13)OC(C)C2 (stereo not drawn)	0
O=C(O)[C@@H]1C[C@@H](C(=O)O)N1	1&-8
CC(=O)N[C@@H](CSC/C=C(\C)CC/C=C(\C)CC/C=C(\C)CCC=C(C)C)C(=O)O	0
O=C(CCc1ccc(O)cc1)c1c(O)cc(O)cc1O[C@H]1OC(CO)C(O)C(O)C1O (stereo partly drawn)	7
CCCC[C@@H]1C[C@H]1C(NC(=O)c1ccccc1)c1ccc(-c2ccccc2)cc1 (stereo partly drawn)	4
C[C@H]1Cc2c(-c3ccccc3)nc3c(c2CO1)CN(C(=O)Cc1cccs1)CC3	7
COc1ccc2c(c1)OCC(Cc1ccc(OC)c(O)c1)C2=O (stereo not drawn)	-1
COc1ccc2c(c1)C(=O)[C@@H](OC(=O)NC1CCCC1)[C@H](c1ccc(OC)c(Br)c1)O2	-4
COc1ccc2[nH]c(I)c(CCNC(C)=O)c2c1	-7
COc1ccc2cc(C(C)CO)ccc2c1 (stereo not drawn)	0
CCC1=C(OC(=O)N(CC)CC)N2C(=O)OC(=NCC3CC3)[C@]2(C)[C@H]2C1=CC[C@H]1C(=O)N(c3ccccc3)C(=O)[C@H]12	-1
OCc1ccc(-c2ccc(-c3ccc(CO)s3)o2)s1	?
COc1ccc(C(=O)c2ccc(O)cc2)c(O)c1O	-12
COC(=O)[C@@]1(Cc2ccccc2)[C@@H]2[C@@H](CC(=O)[C@H]2CC(=O)C(=O)N(C)C)CN1C(=O)c1ccccc1	0
COC(=O)[C@@]1(C)C=C[C@@H](Cc2ccccc2)N1C(=O)c1ccccc1	-1
CCC/C=C(\CCC)C(NC(=O)c1ccccc1)c1ccc(C(=O)OC)cc1 (stereo not drawn)	-14
COC(=O)N1C2(C=CC1(C)C(=O)NCc1ccc(N(C)C)cc1)CCCCC2 (stereo not drawn)	-2
COCOc1c2c(c(OCOC)c3c(OCOC)cccc13)/C(=N/N[S+](=O)([O-])c1ccc(C)cc1)C1=C2CCCC1	1
N=C(N)S/C=C\C(=O)O	-5
COC(=O)[C@@]1(Cc2ccc(OC)cc2)[C@H]2c3cc(C(=O)N4CCCC4)n(CCc4c[nH]c5ccccc45)c3C[C@H]2CN1C(=O)c1ccccc1	0
N[C@H](C(=O)O)[C@H](OCc1ccccc1)C(=O)O	8
C1CCN2C[C@@H]3C[C@@H](CN4CCCC[C@H]34)[C@H]2C1	-1
N[C@H](C(=O)O)c1cccc(O)c1	1&-4
COc1ccc2c(c1)OCC(Cc1ccc(OC)c(OC)c1)C2O (stereo not drawn)	2&2
CCC(C)C(NC)C(=O)O (stereo not drawn)	-7
C=CC(C1=CC(=O)C=CC1=O)c1ccccc1 (stereo not drawn)	0

A different layout for part of the listing above:
structure: COCOc1c2c(c(OCOC)c3c(OCOC)cccc13)/C(=N/N[S+](=O)([O-])c1ccc(C)cc1)C1=C2CCCC1
- GLA inh pH 4.5 = 1
structure: N=C(N)S/C=C\C(=O)O
- GLA inh pH 4.5 = -5

Later entries:
SMILES	GLA inh pH 4.5
O=c1c(O)c(-c2ccccc2)oc2cccc(O)c12	-1
COC(=O)C1(C)C=CCN1C(=O)c1ccccc1 (stereo not drawn)	-3
CCCn1c(C)nc2c(NC3CCN(Cc4ccccc4)C3)nc(C)nc21 (stereo not drawn)	-5
COc1cccc([C@@H]2Oc3ccc(Br)cc3C[C@H]2OC(=O)Nc2cc(OC)c(OC)c(OC)c2)c1	-3
OC(CN1CCNCC1)Cn1c2ccc(Br)cc2c2cc(Br)ccc21 (stereo not drawn)	-8
O=C(/C=C/c1ccccc1)c1cccs1	-1
O=c1cc(-c2ccccc2)oc2cc(O)c(O)cc12	6
Cc1ccc(S(=O)(=O)NC(=O)NN2C[C@H]3CCC[C@@H]3C2)cc1	-2
CC(=O)OCC1=C(C(=O)O)N2C(=O)C(NC(=O)CSc3ccncc3)[C@@H]2SC1 (stereo partly drawn)	11
CC(=O)Oc1c2c(c3c(c1CC=C(C)C)O[C@@]14C(=CC5CC1C(C)(C)OC4(C/C=C(\C)C(=O)O)C5=O)C3=O)OC(C)(CCC=C(C)C)C=C2 (stereo partly drawn)	?
COc1ccc2oc(-c3ccc(O)cc3)cc(=O)c2c1	-8
C[C@@]1(C(NS(=O)(=O)c2cccc3cccnc23)c2ccc(-c3ccccc3)cc2)C[C@H]1C1CCCCC1 (stereo partly drawn)	0
O=C(O)CCC[C@H](O)\C=C/C=C/C=C/[C@H](O)C/C=C\CCCCCO	2
CN1Cc2c(C(=O)OC(C)(C)C)ncn2-c2ccsc2C1=O	8
N[C@H](Cc1cnc[nH]1)C(=O)O	-4
O=C(O)c1cc(N(Cc2ccccc2O)Cc2cc(O)ccc2O)ccc1O	-5
Nc1[nH]nc2nc3ccccc3nc12	-3
CCC1=C2CC[C@H]3C(=O)N(CC)C(=O)[C@H]3[C@H]2[C@@]2(C)C(=O)N(CC(=O)OC)C(=O)N2C1=O	2
COc1ccccc1N1CCN(C[C@@H](O)COc2cccc3ccccc23)CC1	-11&-1
NCC1CCC(C(=O)O)CC1 (stereo not drawn)	2&6
CC(C)[C@H](NC(=O)OCc1ccccc1)C(=O)N[C@H](C=O)Cc1ccccc1	-18
CCCCC[C@H](O)/C=C/C=C\C/C=C\C/C=C\CCCC(=O)O	1
CN[C@@H]1[C@H](O[C@H]2[C@@H](O[C@@H]3[C@@H](O)[C@@H](O)[C@@H](N=C(N)N)[C@@H](O)[C@@H]3N=C(N)N)O[C@@H](C)[C@]2(O)CO)O[C@H](CO)[C@@H](O)[C@@H]1O	2
CCCCCC(CC(=O)O)C(=O)O (stereo not drawn)	-2
CC(C)C[C@@H](CC(=O)N[C@@H](CCCN)CC(=O)N[C@@H]1CCNC[C@H]1C(=O)N[C@H](CC(=O)N[C@@H](CCC(=O)O)CC(=O)O)Cc1ccccc1)NC(=O)[C@@H]1CNCC[C@H]1N	0
CC(C)(C)OC(=O)N1CCC[C@H]1C(O)(c1ccccc1)c1ccccc1	-4
CCCn1c(C)nc2c(NCCCCN(CC)CC)nc(C)nc21	-7
CC(=O)N[C@H]1[C@@H](O[C@@H](C)C(=O)O)[C@H](O)[C@H](CO)O[C@@H]1O	7
CC(C)C[C@@H](CC(=O)N[C@@H](CCC(=O)O)CC(=O)O)NC(=O)[C@@H]1CCCC[C@H]1NC(=O)C[C@@H](NC(=O)C[C@H](CO)NC(=O)[C@@H]1CNCC[C@H]1N)C(C)C	7
C[C@H]1C=C2C=C[C@H](C)[C@H](CC[C@@H]3C[C@@H](O)CC(=O)O3)[C@H]2[C@@H](OC(=O)[C@@H](C)CCO)C1	-12

Exported as a markdown table: three of the compounds above.
| Compound | GLA inh pH 4.5 |
| --- | --- |
| COc1ccccc1N1CCN(C[C@@H](O)COc2cccc3ccccc23)CC1 | -11&-1 |
| NCC1CCC(C(=O)O)CC1 (stereo not drawn) | 2&6 |
| CC(C)[C@H](NC(=O)OCc1ccccc1)C(=O)N[C@H](C=O)Cc1ccccc1 | -18 |

5 entries out of the list, sorted by molecular weight, ascending.
SMILES	GLA inh pH 4.5
Nc1[nH]nc2nc3ccccc3nc12	-3
CCCn1c(C)nc2c(NCCCCN(CC)CC)nc(C)nc21	-7
CC(C)(C)OC(=O)N1CCC[C@H]1C(O)(c1ccccc1)c1ccccc1	-4
C[C@H]1C=C2C=C[C@H](C)[C@H](CC[C@@H]3C[C@@H](O)CC(=O)O3)[C@H]2[C@@H](OC(=O)[C@@H](C)CCO)C1	-12
CN[C@@H]1[C@H](O[C@H]2[C@@H](O[C@@H]3[C@@H](O)[C@@H](O)[C@@H](N=C(N)N)[C@@H](O)[C@@H]3N=C(N)N)O[C@@H](C)[C@]2(O)CO)O[C@H](CO)[C@@H](O)[C@@H]1O	2

Reprinted at random: 2 records from the list
SMILES	GLA inh pH 4.5
CCC1=C2CC[C@H]3C(=O)N(CC)C(=O)[C@H]3[C@H]2[C@@]2(C)C(=O)N(CC(=O)OC)C(=O)N2C1=O	2
O=C(O)c1cc(N(Cc2ccccc2O)Cc2cc(O)ccc2O)ccc1O	-5

Going on with the list:
SMILES	GLA inh pH 4.5
COC(=O)c1ccc(C(NC(=O)OCc2ccccc2)/C(F)=C/[C@@H](C)C(=O)N(C)Cc2cccnc2)cc1 (stereo partly drawn)	-2
Cc1cc2oc(=O)cc(-c3ccccc3)c2c(C)c1-c1cccc(N)c1	-11
CCCCC/C=C\C/C=C\CCCCCCCCCC(=O)NCC(=O)O	0
CCCCCCCCCCCCCCCCCCCCCCO	-6
CC1(OC(=O)c2ccc(Cl)nc2)C(=O)C=C2C=C(c3ccsc3)OC=C2C1=O (stereo not drawn)	-19
NCCC[C@@H](CC(=O)N[C@@H]1CCNC[C@H]1C(=O)N[C@H](CC(=O)N[C@@H](CCC(=O)O)CC(=O)O)Cc1c[nH]c2ccccc12)NC(=O)C[C@H](CO)NC(=O)[C@@H]1CNCC[C@H]1N	1
CC/C=C\C/C=C\C/C=C\C/C=C\C/C=C\C/C=C\CCC(=O)NCCCC(=O)O	3
CCCCCCCCCCCCCCCC(=O)N[C@H](CN1CCOCC1)[C@H](O)c1ccccc1	-3
C[C@@H](C(=O)O)c1ccc(-c2ccccc2)c(F)c1	5&1
Cc1ccccc1C1CC(=O)Oc2cc(C)c(Br)c(C)c21 (stereo not drawn)	-15
C=C[C@](C)(O)CCC=C(C)C	-6
O=C(O)C1CCN(c2ncnc3ccc(-c4ccccc4C(F)(F)F)cc23)CC1	3
COC(=O)CC1C(C)(C)C(OC(C)=O)C2CC3C4CC(=O)OC(c5ccoc5)[C@]4(C)CCC3[C@@]1(C)C2=O (stereo partly drawn)	-1
COc1ccc(-c2nc3c(c4c2C[C@H](c2ccccc2)OC4)CN(S(=O)(=O)c2ccc(C#N)cc2)CC3)c(C)c1	0
CC(=O)OC1CC2C(C)(C)C(O)CC[C@@]2(C)C2CC[C@@]3(C)C(c4ccoc4)OC(=O)C4OC43[C@]12C (stereo partly drawn)	-16
CC(=O)[C@]1(O)CCC2C3CC(C)C4=CC(=O)C=CC4(C)[C@@]3(F)C(O)C[C@]21C (stereo partly drawn)	5
CC(C)=CCn1cnc2c1C(NOCc1ccccc1)=NCN2	-1
O=C1CCCC2CCCCN12 (stereo not drawn)	2
CCOC(=O)C1=C(C)NC(=S)NC1c1cccc(O)c1 (stereo not drawn)	-3
COC(=O)[C@@]1(Cc2ccc(F)cc2)[C@@H]2C(=CC(=O)[C@H]2CC(=O)C(=O)N(C)C)CN1C(=O)c1ccccc1	-25
CC(C)CC1(C(=O)NCC2CC2)C=CCN1C(=O)c1ccccc1 (stereo not drawn)	-17
Cc1c[nH]c(=O)n(CCCN2CCN(c3ccccc3OCC(F)(F)F)CC2)c1=O	4
Cc1cccc(CNc2cc(-c3ccc(N(C)C)cc3)ncn2)c1	4
COCCN=C1OC(=O)N2C(=O)C3=C4C(C[C@H]5C(=O)N(CC(=O)OC)C(=O)[C@H]5[C@H]4[C@@]12Cc1ccccc1)[C@H]1C(=O)N(CC(=O)OC)C(=O)[C@H]1[C@H]3C (stereo partly drawn)	0
CC[C@H](C)[C@H](NC(=O)OCC1c2ccccc2-c2ccccc21)C(=O)O	-2
CCCCCCCC/C=C\C/C=C\C/C=C\CCCC(=O)NCCO	-8
COc1ccc2c3c1O[C@H]1C[C@H](O)C=C[C@@]31CCN(C)C2	-4
CCCCCCCCCCCCCCCCOCC(CO)OC(C)=O (stereo not drawn)	-6
COc1cccc(CS(=O)(=O)c2nnnn2-c2ccc(F)cc2Br)c1	0
CCCCc1ccc2nc(NC(=O)OC)[nH]c2c1	6
CCN(CC)CCCC(C)Nc1nc(C)cc(Nc2ccc3nc(C)cc(N)c3c2)n1 (stereo not drawn)	-6
Cc1nc(N2CCOCC2)c2nc(-c3ccccc3)n(CCCN3CCCCC3C)c2n1 (stereo not drawn)	-6
O=c1cc(N2CCNCC2)oc2c(-c3ccccc3)cccc12	-10
CC(C)C[C@@H](CC(=O)N[C@H](CC(=O)N[C@@H]1CCCC[C@H]1C(=O)N[C@H](CC(=O)N[C@@H](CCC(=O)O)CC(=O)O)Cc1c[nH]c2ccccc12)C(C)C)NC(=O)[C@@H]1CCCC[C@H]1N	-11
CCCN(CCC)CCc1cccc2c1CC(=O)N2	3&1
CC1CC[C@@]23CCC4(C)[C@@]5(C)CCC6C(C)(C)C(=O)CC[C@@]6(C)C5C=C[C@@]4(OC2=O)C3C1C (stereo partly drawn)	-12
COc1ccccc1C1OC(=O)CC1C(=O)OC[C@@H]1CCCN2CCCCC12 (stereo partly drawn)	-6
CC(=O)O[C@@]1(C(C)=O)CCC2C3C=C(Cl)C4=CC(=O)CC[C@]4(C)C3CC[C@]21C (stereo partly drawn)	-3
COC(=O)[C@@H](NC(=O)O[C@@H]1C(=O)c2cc(OC)ccc2O[C@H]1c1cccc(OC)c1)C(C)C	-5
Fc1ccc(C2=NCCC(c3ccccc3)O2)cc1 (stereo not drawn)	-29
COc1c2c(nc3ccccc13)O[C@H]([C@@](C)(O)CO)C2	1
N[C@@H]1CCN(O)C1=O	-13
COC(=O)c1ccc(C(/C=C/[C@@H](C)C(=O)NCc2cc(C)n(C)n2)NC(=O)OCc2ccccc2)cc1 (stereo partly drawn)	-8
COC(=O)C[C@H]1c2ccccc2[C@H]2C(=C[C@@H](C)[C@H]3C(=O)N(O)C(=O)[C@H]32)N1C(=O)OC	7

Compound activity: PubChem, National Center for Advancing Translational Sciences (NCATS)
